HCMV NEC inh: inhibitors of HCMV UL50-UL53 nuclear egress complex interaction. inhibition, % (no concentration beside the values). HTRF UL50-UL53 interaction, normalized percent inhibition. 190,000 compounds, 0.15% hits;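 active = both replicates at 50% or more, plus weaker picks with an unusually low signal ratio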;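 also: stock transfer was 100 nL into about 20 µL; 0% = negative control wells and 100% = wells with untagged competitor protein; inactives centre near -12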
GIV Gai3 FP: GIV-Galpha-i interaction inhibition; 210,000 compounds, 0.42% hits; Galpha-i3/FITC-GIV peptide fluorescence polarization, 90 min; stronger effect = lower value; scaled: aluminum fluoride 0%, vehicle 100%; percent of control (FP), % (test concentration not listed);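 active = replicate mean at 85% of control or lower, very high polarization wells dropped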;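 also: wells of about 15 µL received 100 nL stock; the first replicate is given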
Target sequence (P08753 whole entry, looked up): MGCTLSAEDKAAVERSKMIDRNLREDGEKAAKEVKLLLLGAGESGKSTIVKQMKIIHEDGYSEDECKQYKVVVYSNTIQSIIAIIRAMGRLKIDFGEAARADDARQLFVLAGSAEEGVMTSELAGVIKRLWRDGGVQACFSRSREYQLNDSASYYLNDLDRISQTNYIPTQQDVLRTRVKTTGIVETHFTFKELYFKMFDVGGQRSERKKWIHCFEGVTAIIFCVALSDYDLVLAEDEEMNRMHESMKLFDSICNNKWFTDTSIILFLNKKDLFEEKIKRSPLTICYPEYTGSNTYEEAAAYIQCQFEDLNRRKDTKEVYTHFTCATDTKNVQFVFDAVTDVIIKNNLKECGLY
Sa growth 42C: blocks Staphylococcus aureus growth; S. aureus RN4220 growth, OD600, 20 h, 42 °C; stronger effect = lower value; 170,000 compounds, 0.53% hits; relative growth, % (no concentration beside the values); AID 720641;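 active = growth at 42 °C up to 50% and 20 or more points under that at 30 °C, or under 10% at both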;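 also: 300 nL library stock went into each well; scaled to the means of positive and negative controls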
Sa growth 42C second temp: also measured in Sa growth 42C; calls as there; relative growth, %; measured here: growth at 30 °C;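 optical density after 20 h as mean of two plates; 100% = untreated growth and lower means inhibition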
The depositor's hits bear a star; . = no result given; & = joins results of further samples.

SMILES	HCMV NEC inh	GIV Gai3 FP	Sa growth 42C	Sa growth 42C second temp
Cc1noc(C)c1COC(=O)/C=C/c1cn(-c2ccccc2)nc1-c1cc2ccccc2oc1=O	13	.	94	88
COC(=O)c1ccc(S(=O)(=O)N(C)C)o1	-39	96	102	98
N#CC(C#N)=C(C#N)c1ccc(-c2ccccc2)[nH]1	13	121	21	2
O=C1N=c2ccc(Br)cc2=C1c1sc(=S)n(NC(=O)c2ccccc2[N+](=O)[O-])c1O	-25	103	.	.
CCOc1cccc2c1Oc1nc(-c3ccccc3)nc(SCC(=O)N(CC)CC)c1C2	.	100	91	74
CNC(=O)CCCN1C(=O)CSc2ncccc21	7	101	99	90
Cc1nn(CC(C)C)c(Cl)c1C(=O)NCc1cccnc1	-26	.	80	99
Cc1c(-c2cc(NC(=O)c3ccccc3)n[nH]2)sc2ccc(Cl)cc12	-35	102	99	72
COC(=O)/C=C/c1cn(C2OCC(CO)C2O)c(=O)[nH]c1=O (stereo not drawn)	27	108	101	82
O=C(CNC(=O)c1sc2ccccc2c1Cl)Nc1ccc(-n2cnnn2)cc1	14	.	97	71
COc1ccc(Nc2cc(C(=O)NCCCN(C)Cc3ccccc3)c3ccccc3n2)cc1	.	103	113	100
Cn1c(NC(=O)c2ccco2)c(-c2ccccc2)c(=O)c2ccccc21	0	104	92	91
O=C(OC1CC1(Cl)Cl)c1ccccc1 (stereo not drawn)	-8	99	101	35
O=C(COC(=O)C1CCN(S(=O)(=O)c2cccs2)CC1)c1cc2ccccc2o1	-9	.	99	90
CCc1ccccc1N1C(=O)N(Cc2cccc(Cl)c2)c2ccccc2S1(=O)=O	.	105	106	103

Profiles, quoted from the list.
Listed for Cc1c(-c2cc(NC(=O)c3ccccc3)n[nH]2)sc2ccc(Cl)cc12 → HCMV NEC inh: -35; GIV Gai3 FP: 102; Sa growth 42C: 99; Sa growth 42C second temp: 72
Listed for N#CC(C#N)=C(C#N)c1ccc(-c2ccccc2)[nH]1 → HCMV NEC inh: 13; GIV Gai3 FP: 121; Sa growth 42C: 21; Sa growth 42C second temp: 2

(list continues)
SMILES	HCMV NEC inh	GIV Gai3 FP	Sa growth 42C	Sa growth 42C second temp
CC(C)COc1ccc(C(=O)NN)cc1	-11	.	102	79
CC(C)OCCCNC(=O)CN1C(=O)c2cccnc2Sc2ccccc21	.	101	97	89
CC(Oc1ccccc1)C(=O)Nc1ccc(C(=O)OCc2cc(=O)n3nc(C4CC4)sc3n2)cc1 (stereo not drawn)	.	112	79	79
Cc1ccc(C2C=C(c3ccc(Cl)cc3)Nc3nc(NS(=O)(=O)c4ccc(C)cc4)nn32)cc1 (stereo not drawn)	-38	119	.	.
O=C(O)c1ccc(N2CCCC2=O)cc1O	-8	101	96	88
O=C(Nc1cccc(-c2noc(C3CCCC3)n2)c1)c1cncc(Br)c1	-7	103	.	.
O=C(O)CC(Cc1ccccc1)C(=O)O (stereo not drawn)	-10	107	97	94
CCOC(=O)CC1=CC(SCc2ccc(C)cc2C)=Nc2ccccc2N1	-39	106	.	.
CC(C)Cc1nn2c(=O)cc(COC(=O)c3cccc(NC(=O)c4ccccc4)c3)nc2s1	.	103	115	92
COc1ccc(-c2cc(C(=O)NCC(c3ccccc3)N3CCCC3)no2)cc1 (stereo not drawn)	-22	105	.	.
Cc1onc(-c2ccccc2Cl)c1C(=O)Nc1cccc2cccnc12	-7	102	.	.
Clc1cccc(CSc2nnc(-c3ccc(Br)cc3)o2)c1	1	97	.	.
Cc1ccsc1-c1nc(-c2cccc(NC(=O)NC(C)C)c2)no1	-27	103	.	.
COC(=O)C(O)(CC(=O)O)C(F)(F)F (stereo not drawn)	-13	.	75	89
Cc1ccc(N2CCN(C(=O)Cn3nc(Cc4cccnc4)c4ccccc4c3=O)CC2C)cc1 (stereo not drawn)	.	99	106	95

Reformatted: entries from further up
| molecule | HCMV NEC inh | GIV Gai3 FP | Sa growth 42C | Sa growth 42C second temp |
| --- | --- | --- | --- | --- |
| COC(=O)/C=C/c1cn(C2OCC(CO)C2O)c(=O)[nH]c1=O (stereo not drawn) | 27 | 108 | 101 | 82 |
| O=C(CNC(=O)c1sc2ccccc2c1Cl)Nc1ccc(-n2cnnn2)cc1 | 14 | . | 97 | 71 |
| COc1ccc(Nc2cc(C(=O)NCCCN(C)Cc3ccccc3)c3ccccc3n2)cc1 | . | 103 | 113 | 100 |
| Cn1c(NC(=O)c2ccco2)c(-c2ccccc2)c(=O)c2ccccc21 | 0 | 104 | 92 | 91 |
| O=C(OC1CC1(Cl)Cl)c1ccccc1 (stereo not drawn) | -8 | 99 | 101 | 35 |
| O=C(COC(=O)C1CCN(S(=O)(=O)c2cccs2)CC1)c1cc2ccccc2o1 | -9 | . | 99 | 90 |
| CCc1ccccc1N1C(=O)N(Cc2cccc(Cl)c2)c2ccccc2S1(=O)=O | . | 105 | 106 | 103 |
| CC(C)COc1ccc(C(=O)NN)cc1 | -11 | . | 102 | 79 |
| CC(C)OCCCNC(=O)CN1C(=O)c2cccnc2Sc2ccccc21 | . | 101 | 97 | 89 |
| CC(Oc1ccccc1)C(=O)Nc1ccc(C(=O)OCc2cc(=O)n3nc(C4CC4)sc3n2)cc1 (stereo not drawn) | . | 112 | 79 | 79 |
| Cc1ccc(C2C=C(c3ccc(Cl)cc3)Nc3nc(NS(=O)(=O)c4ccc(C)cc4)nn32)cc1 (stereo not drawn) | -38 | 119 | . | . |
| O=C(O)c1ccc(N2CCCC2=O)cc1O | -8 | 101 | 96 | 88 |
| O=C(Nc1cccc(-c2noc(C3CCCC3)n2)c1)c1cncc(Br)c1 | -7 | 103 | . | . |
| O=C(O)CC(Cc1ccccc1)C(=O)O (stereo not drawn) | -10 | 107 | 97 | 94 |
| CCOC(=O)CC1=CC(SCc2ccc(C)cc2C)=Nc2ccccc2N1 | -39 | 106 | . | . |
| CC(C)Cc1nn2c(=O)cc(COC(=O)c3cccc(NC(=O)c4ccccc4)c3)nc2s1 | . | 103 | 115 | 92 |
| COc1ccc(-c2cc(C(=O)NCC(c3ccccc3)N3CCCC3)no2)cc1 (stereo not drawn) | -22 | 105 | . | . |
| Cc1onc(-c2ccccc2Cl)c1C(=O)Nc1cccc2cccnc12 | -7 | 102 | . | . |
| Clc1cccc(CSc2nnc(-c3ccc(Br)cc3)o2)c1 | 1 | 97 | . | . |

Next compounds.
SMILES	HCMV NEC inh	GIV Gai3 FP	Sa growth 42C	Sa growth 42C second temp
CCC(C)(C(=O)NC1CCCC1)N(Cc1ccco1)C(=O)c1ccccn1 (stereo not drawn)	-13	100	102	90
O=C(COC(=O)CCc1c[nH]c(=O)[nH]1)Nc1cccc(Cl)c1	.	102	117	90
O=C(c1ccc2c(c1)OCO2)N1CCC(c2nc3c(nnn3Cc3ccc(F)cc3)c(=O)[nH]2)CC1	22	106	.	.
CCN(CC)c1ccc2nnc(CCC(=O)NCC3CCN(Cc4ccc(C)cc4)C3)n2n1 (stereo not drawn)	-2	107	108	78
COc1ccc(N(C)C(=O)Cn2cc(S(=O)(=O)N3CCN(c4ccccc4F)CC3)c3ccccc3c2=O)c(OC)c1	-2	102	124	98
CCCN1CCN(CCCNC(=O)c2ccc3c(c2)sc2nc(-c4ccc(OC)cc4)cn23)CC1	.	114	138	98
O=C(NCc1ccccc1)c1ccc2c(c1)N(Cc1ccccc1F)C(=O)c1ccccc1S2=O (stereo not drawn)	-27	105	102	85
CC(SC1CC(=O)N(c2ccccc2)C1=O)C(=O)O (stereo not drawn)	4	100	111	112
COc1ccc(-c2nc3sc(CCNC(=O)C(=O)Nc4ccc(C)c(F)c4)c(C)n3n2)cc1	.	101	111	80
Cc1cc(S(=O)(=O)NCC(c2ccc(N(C)C)cc2)N(C)C)ccc1F (stereo not drawn)	-23	102	.	.
Cc1ccccc1-c1noc(CSc2nc3ccccc3[nH]2)n1	-32	108	90	87
CC1CCCC(C)N1C(=O)NC(=O)c1ccccc1 (stereo not drawn)	-24	.	95	80
O=c1c2sccc2n2c(SCc3cccc(F)c3)nnc2n1CC1CCCO1 (stereo not drawn)	14	103	.	.
S=C(SCc1nnc(-c2ccc(Cl)cc2)o1)N1CCCC1	-18	.	94	95
O=C(/N=C1\N=C2N=CC=CN2Cc2ccccc21)Nc1ccc(Cl)cc1	-6	.	94	79
COc1ccc(S(=O)(=O)N2CCN(C(=O)c3cc(-c4ccccc4OC)n[nH]3)CC2)cc1	.	107	109	89
Cc1[nH]n(-c2ccccc2)c(=O)c1/C=C1\C=c2ccccc2=NC1=O	.	104	113	107
O=C(NC1CCCC1)c1nnc(Cc2ccc(Cl)cc2)o1	.	104	100	72
Cc1[nH]c2ccccc2c1C(Nc1nccs1)c1ccc(C(C)C)cc1 (stereo not drawn)	.	97	112	76
CCOC(=O)COc1ccc(C2C(C(=O)OC)=C(C)NC3=C2C(=O)c2ccccc23)cc1Cl (stereo not drawn)	6	110	101	95
CCOC(=O)N1CCN(S(=O)(=O)c2ccc(-n3cnnn3)cc2)CC1	-15	98	76	80
CCOc1cc2c3c(c1)C(C)=CC(C)(C)N3C(=O)C2=O	-20	99	.	.
COc1ccc(NC(=O)Cn2nc3ccc(SCc4ccc(Cl)cc4)nn3c2=O)cc1OC	-12	95	.	.
CN(/N=C\C=C\c1ccccc1)c1ccccn1	-15	101	112	97
CN(C(=O)NC(=O)C1=C(N2CCOCC2)/C(=C\c2ccccc2)CC1)S(C)(=O)=O	-68	.	103	98
Nc1c(C(=O)N2CCOCC2)oc2ccccc12	-30	103	.	.
Cc1cccc(NC(=O)c2ccc(N(Cc3ccccc3)S(C)(=O)=O)cc2)c1	-55	104	90	81
CCn1c(=NC(=O)c2ccc(S(=O)(=O)N3CCOCC3)cc2)sc2ccccc21	11	108	97	89
CCOC(=O)C1CCN(c2nc3c(S(=O)(=O)c4ccc(Br)cc4)nnn3c3ccsc23)CC1	.	103	104	78
Cc1ccc(O)c(Nc2cc(-c3ccccc3)nc(C)n2)c1	-12	99	.	.
CCNC(=O)C1CCN(c2ncnc3c2nc2n3CCCCC2)CC1	-6	110	91	103
CCc1nn(CC(=O)NCc2ccccc2Cl)c(=O)c2cc3ccccc3n12	-12	102	110	94
O=C1Nc2ccccc2C1Cc1ccc(N=Cc2cc(Cl)cc(Cl)c2O)cc1 (stereo not drawn)	-25	113	86	90
COc1ccc(-c2nc(CN3CCC(C(=O)NCc4ccccc4)CC3)c(C)o2)cc1OC	-30&-23	107&105	108	91
Cc1cc(C)cc(NC(=O)NC(C)(C)C)c1	-1	110	113	98
CC(C)OCCCNC(=O)c1c2c(nc3ccccc13)C(=O)N(C1CCCCC1)C2	.	97	88	86
COc1ccc(NC(=O)[C@@H]2CCCN2S(=O)(=O)c2ccc(C)cc2)cc1	12	.	116	101
Cc1ccc(-c2nn(CCC(=O)N3CCCC3)c(=O)c3ccccc23)cc1	.	99	77	73
CC(OC(=O)C1CC1)C(=O)Nc1ccnn1C(C)C (stereo not drawn)	-13	.	104	95
CCCCN(CCCC)c1ncnc2c1cnn2-c1cccc(C)c1	.	101	78	98
COc1ccc(CCN2C(=O)c3oc4cc(C)cc(C)c4c(=O)c3C2c2ccc(F)cc2)cc1OC (stereo not drawn)	-16	96	105	91
O=C(O)CSc1c2c(nc3cc(C(=O)NC4CCCCCC4)ccc13)CCC2	.	112	91	85
O=C(O)C1CCCCC1c1nc2ccccc2s1 (stereo not drawn)	-10	.	120	95
COc1ccc(/C=C\c2onc(C)c2S(=O)(=O)N2CCC(C(=O)N3CCc4ccccc43)CC2)cc1	-27	103	.	.
CCOc1ccc(/C=C2/SC(=Nc3ccccc3)NC2=O)cc1OC	-45	102	.	.
CC(=O)N1CCn2c1nc1ccccc12	-10	.	104	83
FC(F)(F)c1ccncc1-c1nnc(-c2ccccc2)o1	7	109	107	91
COc1ccc(CNC(=O)c2ccc3cnn(Cc4ccc(Cl)cc4)c3c2)cc1	-18	101	.	.
O=c1c2cccnc2nc(SCc2ccc(Cl)cc2)n1Cc1ccccc1	.	110	99	88
CC(=O)N1CCc2cc(NC(=O)CC(=O)c3ccccc3)ccc21	-7	.	90	84
Cc1cc(N2CCN(C)CC2)nc2ccc(NC(=O)NCC3CCCO3)cc12 (stereo not drawn)	-4	104	.	.
O=C(NC1CCCCC1)c1cnn(-c2ccccc2)c1	10	104	.	.
CC(=O)N1CCc2c(sc3c2c(=O)n(CCc2ccccc2)c(=O)n3CC(=O)Nc2ccccc2F)C1	-19	107	110	80
COc1cccc2cc3c(=O)n(-c4ccccc4)nc-3oc12	-13&-22	103&99	116	88
Cc1ccc(-c2noc(-c3nnn(CC(=O)Nc4cc(Cl)ccc4C)c3N)n2)cc1	.	110	93	84
O=C(O)COCc1nc2ccccc2[nH]1	4	104	90	94
C=CCn1c(SC(C)C#N)nnc1-c1ccc(Br)cc1 (stereo not drawn)	-12	.	102	92
O=C(c1cnc2c(c1)COc1ccc(Cl)cc1-2)c1ccccc1O	8	109	91	105
COCc1cc(C)nc2sc3c(c12)NC(C)N(c1ccc(C)c(Cl)c1)C3=O (stereo not drawn)	-22	100	.	.
CC(Oc1ccccc1)c1nc(-c2cccnc2)no1 (stereo not drawn)	-5	108	97	90
O=C(CN1CCN(CC(=O)Nc2ccccc2F)CC1)Nc1ccc(F)cc1	-29	106	90	89
CCc1cc(=O)oc2c(CN(C)C)c(O)c(Cl)cc12	-26	111	100	93
O=C(c1ccc(-c2noc(C3CC3)n2)cc1)N1CCCN(c2nc3ncccc3o2)CC1	-21	109	.	.
